Assay outcomes deposited in PubChem BioAssay by National Center for Advancing Translational Sciences (NCATS).
PINK1 expr mod: A Quantitative High throughput Screen to Identify Chemical Modulators of PINK1 Expression; PINK1 immunofluorescence, high-content cytometry, 24 h; Potency, µM (titrated, usually from 76.6 µM), without a hit: at the highest dose activation (PINK1 increase), most hits filed as activators; 0.2% of 410,000 active; AID 624263, 2012; active = well fitted activation curve with a large enough effect; inconclusive = small, poorly fitted or top-dose-only effect; inactive = flat fitted curve, though single readings scatter; cell line not stated here;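 note: potency is the fitted concentration of half-maximal effect; % of control where 0% means no effect; nearly all actives have a fitted effect of over 65% in size; a mitochondrial uncoupler was the plate control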
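A stable cell line was treated with compounds at 5 concentrations for 24 hours, with CCCP as control. PINK1 levels and mitochondrial localization were measured by immunofluorescence with mitochondrial, cell and nuclear markers after fixation, read by laser-scanning cytometry.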
TRPML1 inh: qHTS for Inhibitors of the Human Mucolipin Transient Receptor Potential 1 (TRPML1); Mucolipin-1 (Homo sapiens), Q9GZU1; TRPML1-inducible cells, Ca2+ dye fluorescence, FDSS; stronger effect = lower value; inhibition of EC80 agonist-evoked calcium signal; activity change, negative = inhibition, % (concentration not given with the values); 0.02% of 390,000 active; AID 624415, 2012; in the data active means activity change below about -50%; inconclusive means about -30% to -50%; inactive means above about -30%;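 note: stimulus is agonist 54-4 at its EC80 concentration; % is set by controls: 0 for no effect and ±100 for the full control effect; compound concentration not given in the record; the text of the record puts the active cut at -80%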
Target sequence (Q9GZU1 whole entry, looked up): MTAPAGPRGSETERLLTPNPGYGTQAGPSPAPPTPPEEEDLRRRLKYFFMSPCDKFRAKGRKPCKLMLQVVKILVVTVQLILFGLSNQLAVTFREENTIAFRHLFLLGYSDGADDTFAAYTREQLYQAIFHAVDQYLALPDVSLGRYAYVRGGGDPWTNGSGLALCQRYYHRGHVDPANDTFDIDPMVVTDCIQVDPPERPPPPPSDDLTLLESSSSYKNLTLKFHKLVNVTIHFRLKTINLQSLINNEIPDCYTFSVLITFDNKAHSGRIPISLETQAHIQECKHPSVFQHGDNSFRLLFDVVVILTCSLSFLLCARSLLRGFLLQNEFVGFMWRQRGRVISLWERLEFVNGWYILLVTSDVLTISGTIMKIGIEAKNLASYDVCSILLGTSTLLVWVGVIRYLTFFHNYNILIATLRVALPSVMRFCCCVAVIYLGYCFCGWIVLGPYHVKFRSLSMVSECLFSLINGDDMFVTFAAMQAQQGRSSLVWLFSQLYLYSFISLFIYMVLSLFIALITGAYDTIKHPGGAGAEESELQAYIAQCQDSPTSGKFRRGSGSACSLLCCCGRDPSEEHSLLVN
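TRPML1-DL cells, Tet-induced overnight (~16 h, 37 °C) at 1,500 cells/well, were loaded with Ca8 no-wash dye plus quencher for 45-90 min at room temperature. Compounds were pinned during FDSS kinetic reading; agonist 54-4 at EC80 (4 uM final) then added.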
Six1-Eya2 inh: qHTS Assay for Inhibitors of the Six1/Eya2 Interaction | AID 651725, 2012 | Homeobox protein SIX1 (Homo sapiens) + Protein phosphatase EYA2 (Homo sapiens), … | 0.56% of 360,000 active | AlphaScreen GST-Six1/His-Eya2 binding, biochemical; stronger effect = lower value; control for the full effect not named in the record | activity change, % (concentration not given with the values); in the data active = activity change below about -65%; inconclusive = about -30% to -65%; inactive = above about -30%; note: % is set by controls: 0 for no effect and ±100 for the full control effect
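GST-Six1 + His-Eya2 (5X stock: 250/500 nM); Tris pH 8.0, 300 mM NaCl, 0.05% BSA, 0.02% Tween 20; GSH donor/Ni acceptor beads; 1 h 37 °C dark; AlphaScreen readout.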
CtBP-E1A inh: qHTS Assay for Inhibitors of the CtBP/E1A Interaction. CtBP / adenovirus E1A interaction (AlphaScreen). AlphaScreen GST-E1A/His-CtBP binding, 1536-well; stronger effect = lower value; control for the full effect not named in the record. activity change, % (no concentration beside the values). 0.49% of 340,000 active; in the data active means activity change below about -65%; inconclusive means about -30% to -65%; inactive means above about -30%; note: % is set by controls: 0 for no effect and ±100 for the full control effect; compound concentration not given in the record
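AlphaScreen with 125 nM GST-E1A and 125 nM His-CtBP (5X stocks) in Tris pH 8.0, 300 mM NaCl, BSA, Tween 20, TCEP. Compounds preincubated 2 h at 37 deg C, then glutathione donor/nickel acceptor beads added for 1 h at 37 deg C in dark.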
D2 ag: Beta-Arrestin HTS for Positive Allosteric Modulators of the Human D2 Dopamine Receptor: Agonists. D(2) dopamine receptor (Homo sapiens), P14416. DiscoveRx PathHunter D2 beta-arrestin, luminescence, 90 min; 100% = 57 uM dopamine signal. activation, % (concentration not given with the values). 0.084% of 360,000 active. AID 624465, 2012; in the data active = activation above about 40%; inconclusive = about 15% to 40%; inactive = below about 15%; note: compound concentration not given in the record; the text of the record calls up to 30% inactive
Target sequence (P14416 whole entry, looked up): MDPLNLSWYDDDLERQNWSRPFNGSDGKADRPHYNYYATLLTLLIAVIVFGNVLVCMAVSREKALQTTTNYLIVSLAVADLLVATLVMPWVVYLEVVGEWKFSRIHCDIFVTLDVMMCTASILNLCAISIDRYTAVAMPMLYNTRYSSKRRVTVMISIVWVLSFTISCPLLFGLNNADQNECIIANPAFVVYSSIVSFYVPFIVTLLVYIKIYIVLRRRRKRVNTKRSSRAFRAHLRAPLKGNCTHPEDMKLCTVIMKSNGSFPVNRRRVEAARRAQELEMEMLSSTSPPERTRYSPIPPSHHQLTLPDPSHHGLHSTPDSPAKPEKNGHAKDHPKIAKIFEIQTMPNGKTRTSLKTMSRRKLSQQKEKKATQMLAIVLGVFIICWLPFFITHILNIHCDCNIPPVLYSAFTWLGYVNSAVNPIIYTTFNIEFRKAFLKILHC
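Agonist mode: compounds alone added to overnight-plated D2 PathHunter cells for 90 min at 37 C, with 57 uM final dopamine (EC100) defining full response. Beta-arrestin recruitment detected by chemiluminescent reagent, read after 1 h at ambient temperature.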
TRPML1 ag: qHTS for Agonists of the Human Mucolipin Transient Receptor Potential 1 (TRPML1); TRPML1-expressing cells, Ca2+ dye fluorescence, FDSS; host cell line not named in the record; reference of the full effect not given here; activation, % (test concentration not listed); 0.12% of 410,000 active; AID 624414, 2012; in the data active = activation above about 50%; inconclusive = about 30% to 50%; inactive = below about 30%; note: 0% is about no effect; the text of the record puts the active cut at 80%
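Agonist activity was taken from a 110 s kinetic Ca2+ dye read on the FDSS after pinning compounds onto TRPML1-DL cells. The cells were seeded at 1,500/well with Tet inducer, incubated about 16 h, then dye-loaded at room temperature.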
Active calls of the source: *; ? = inconclusive; / = no result given; [ ] = dose if it differs, or a comment.

SMILES	PINK1 expr mod	TRPML1 inh	Six1-Eya2 inh	CtBP-E1A inh	D2 ag	TRPML1 ag
Cc1ccsc1CN(C)C(=O)c1ccc(Oc2ccccc2)cc1	2.6%	47	3	13	-3.5	1.5
COc1ccccc1NC(=S)N(Cc1ccc(C)cc1)Cc1cccnc1	2.2%	-20	-2	2	-1.3	0.5
CC(CC(=O)O)CC(=O)Nc1ccc(S(N)(=O)=O)cc1 (stereo not drawn)	-0.3%	-1	-4	5	-3.8	-0.3
C=CCNCC(=O)N1N=C(c2ccc3ccccc3c2)CC1c1ccc(OC)cc1 (stereo not drawn)	-1.0%	21	-19	-29	-0.4	0.1
CC(C)CNC(=O)C1(C)CCCN1C(=O)c1ccc2ccccc2n1 (stereo not drawn)	0.0%	/	9	4	-1.9	-0.6
CC1CC1C(=O)Nc1cc(C(F)(F)F)ccc1N1CCOCC1 (stereo not drawn)	-0.4%	-1	2	2	-3.2	0.7
COc1ccc(NC(=O)N(C)C[C@@H]2OCc3cn(nn3)CCCC(=O)N([C@@H](C)CO)C[C@H]2C)cc1	0.9%	-24	10	3	-9.1	-0.1
O=C(NCCCC(=O)N1CCOCC1)c1cccnc1	2.0%	-15	-11	0	-3.1	0.9
COc1cccc(N2CCN(C(=O)c3cnc4c(-c5ccc(F)cc5)c(C)nn4c3C)CC2)c1	-0.5%	1	/	/	/	1.4
O=C(NCc1n[nH]c(=S)n1-c1ccc(Br)cc1)c1ccc(S(=O)(=O)N2CCOCC2)cc1	2.5%	3	0	0	13	-0.5
COc1ccc(C)cc1N(CC(=O)N1CCCCCC1)S(C)(=O)=O	-0.4%	-4	-17	6	0.0	-0.4
O=C1NN(c2ccccc2)C(=O)/C1=C/c1ccc(-c2ccc(Cl)c(C(=O)O)c2)o1	?	-1	-11	1	-3.0	-0.2
O=C(NCCc1ccccc1)c1ccc2c(c1)N(Cc1ccccc1)C(=O)c1ccccc1S2(=O)=O	-0.9%	20	/	/	/	1.8
Cc1cc(C(=O)OCC(=O)N2CCN(C(=O)c3ccco3)CC2)c(C)n1-c1ccc(F)cc1	-0.8%	-2	-7	-1	-2.8	-1.2
C/C=C/c1ccc2c(c1)O[C@@H](CN(C)C(=O)c1ccc(F)cc1)[C@@H](C)CN([C@H](C)CO)S2(=O)=O	0.0%	-10	0	3	-6.6	-0.1
CCOc1ccccc1C(=O)N(Cc1cc(OC)c(OC)c(OC)c1)C1CCS(=O)(=O)C1 (stereo not drawn)	2.6%	-13	/	/	/	-0.1
CCN(CC)CCCNc1cc(-c2ccccc2)nc(C)n1	-1.1%	11	/	/	/	-0.5
CCCCc1nn2c(=O)cc(COC(=O)c3ccc(NC(=O)c4cccc(OC)c4)cc3)nc2s1	-0.2%	3	/	/	/	-0.3
COc1cc(/C=C2\S/C(=N/S(=O)(=O)c3ccc(C)cc3)NC2=O)c([N+](=O)[O-])cc1OC	/	0	3	5	-1.0	-0.2
Nc1[nH]c(N=NC(=O)c2ccc(Cl)cc2)c2ccccc12	7.6%	-4	-8	-12	-5.6	-0.5
CCCn1nnc(NC(=O)c2ccc(F)cc2)n1	-2.5%	1	-1	4	-4.6	-0.4
COc1cc(CCC(=O)O)on1	1.6%	-1	-1	/	3.7	-0.5
COc1cccc(-c2ccc3c(c2)O[C@@H](CN(C)Cc2cncnc2)[C@@H](C)CN([C@H](C)CO)S3(=O)=O)c1	0.2%	34	2	-21	-8.8	0.1
COc1ccccc1-c1nnc(C2CCN(S(=O)(=O)c3cccc([N+](=O)[O-])c3)CC2)o1	4.2%	29	0	/	2.6	-0.1
COc1ccc(C(=O)c2ccc(OC)c(N)c2)cc1N	/	-6	5	-2	-0.3	-0.5
Cc1cc(N2CCOCC2)n2ncc(-c3ccccc3Cl)c2n1	-1.1%	16	9	12	-1.3	-1.7
COc1ccc(-c2cc3c(nn2)-c2ccccc2C3=O)cc1	0.2%	4	-5	-20	-21	-0.3
O=C(CN(C(=O)Cn1nnc(-c2ccccc2F)n1)c1cccc2c1CCCC2)NCc1ccccc1	-14%[38.3 µM]	20	-2	-10	-1.8	-0.1
COc1ccc(S(=O)(=O)NCc2ccc3c(c2)OCO3)cc1OC	0.2%	-4	5	/	-4.4	0.7
COc1ccc(C(NC(=O)/C=C/c2ccco2)c2ccc(OC)c(OC)c2)cc1 (stereo not drawn)	17%	5	-13	0	-3.6	0.5
COCCCN1C(=O)C(CC(=O)NCc2cccc3ccccc23)CC(C(=O)N(C)C)=C1C (stereo not drawn)	1.1%	14	0	-20	-7.3	-0.2
COc1ccccc1CN1CC(C(=O)NCCN2CCNC2=O)CCC1=O (stereo not drawn)	0.1%	59	10	/	-3.3	0.3
COc1cc(C(=O)NC2CCCc3ccccc32)cc(OC)c1C (stereo not drawn)	3.9%	25	0	8	0.5	3.0
COc1ccc(CCNS(=O)(=O)c2cc3c(cc2C)NC(=O)CO3)cc1OC	1.7%	3	-4	4	-3.0	-0.4
COC(=O)CCC(=O)OC1(C)C(=O)C=C2C=C(c3ccsc3)OC=C2C1=O (stereo not drawn)	-1.8%	20	-18	-20	1.6	1.0
Cc1c(C(=O)NCCCn2ccnc2)oc2ccccc12	-1.4%	10	-8	3	-3.8	-0.1
Cc1ccc(N2C(=O)c3ccc(C(=O)NCCN4CCOCC4)cc3C2=O)cc1	-1.0%	-2	0	3	-1.3	-0.5
CCN(CC)c1ccc2c(c1)C(=O)N(C)C2=O	-1.1%	1	18	15	-1.3	1.3
COC(=O)c1ccc(C(=O)NC(=S)Nc2ccc3nc(SC)sc3c2)cc1	9.0%	-13	3	3	-2.0	-0.6
CCCCN(C(=O)c1cccc(S(=O)(=O)N(C)c2ccc(C)cc2)c1)c1c(N)n(CCCC)c(=O)[nH]c1=O	8.2%	2	1	7	-4.5	0.8

Brought forward from above: 3 entries; new compounds follow.
SMILES	PINK1 expr mod	TRPML1 inh	Six1-Eya2 inh	CtBP-E1A inh	D2 ag	TRPML1 ag
CCN(CC)c1ccc2c(c1)C(=O)N(C)C2=O	-1.1%	1	18	15	-1.3	1.3
COC(=O)c1ccc(C(=O)NC(=S)Nc2ccc3nc(SC)sc3c2)cc1	9.0%	-13	3	3	-2.0	-0.6
CCCCN(C(=O)c1cccc(S(=O)(=O)N(C)c2ccc(C)cc2)c1)c1c(N)n(CCCC)c(=O)[nH]c1=O	8.2%	2	1	7	-4.5	0.8
O=S(=O)(Nc1ccc2ccccc2c1)N1CCCCC1	8.6%	-3	5	2	-1.8	2.7
CC(=O)NC(=S)NNC(=O)COc1ccc(Br)cc1	0.5%	-10	-20	15	2.0	-0.1
CCOC(=O)C1CCN(S(=O)(=O)c2c(C)n(C)c(=O)n(C)c2=O)CC1	0.7%	16	0	13	-7.1	0.0
Nc1ccc(-n2nncc2-c2ccc(Cl)cc2)cc1	0.8%[38.3 µM]	-5	-3	0	1.0	0.1
CSc1ccc(N/N=C(/C#N)S(=O)(=O)C(C)(C)C)cc1	14%	2	1	/	-1.0	0.0
Cc1cc(N2C(=O)C3C4CC(c5ccccc5)C(C4)C3C2=O)no1 (stereo not drawn)	0.0%	-16	22	0	0.2	-0.7
COCc1ccc(CN2CCc3c([nH]c4ccccc34)C2C(C)(C)C)o1 (stereo not drawn)	19%	-12	-14	-13	4.4	0.6
COc1ccccc1CNC(=O)[C@H](C)NC(=O)[C@@H]1Cc2ccccc2CN1	0.0%	-5	8	1	-6.5	1.6
CCOC(=O)C1=C(c2ccccc2)NC(=O)NC1c1ccsc1 (stereo not drawn)	2.7%	0	7	0	-0.5	0.6
O=C1NC(=O)N(C2CCCCC2)CC1Br (stereo not drawn)	-0.5%	1	11	5	0.4	-0.4
COc1ccc(CC(=O)OCC(=O)NCc2ccco2)cc1OC	-0.3%	19	-3	10	-2.0	-0.1
CC(C)Nc1nnc(SCC(=O)/C=C2\N(C)c3ccccc3C2(C)C)s1	1.0%	12	-3	-22	1.4	0.7
CCCn1c2ccccc2c2cnn(CC(=O)NCCc3ccc(C)cc3)c(=O)c21	0.8%	6	/	/	/	4.1
COc1cc2c(C(=O)Nc3ccc(C)cc3Br)cn(C)c(=O)c2cc1OC	-0.2%	-7	/	/	/	1.4
CCCn1nc(C(=O)NNC(=O)C2CSC3(C)CCC(=O)N23)c2ccccc2c1=O (stereo not drawn)	1.7%	-1	2	3	3.2	0.2
Cc1cccc(CSc2nnc(-c3ccco3)n2C)c1	1.9%	-14	-1	0	-1.5	0.1
CCOc1cc(CNCCO)cc(Br)c1OCc1ccccc1	-0.7%	31	14	14	0.5	0.8
COc1ccc(N2CCN(C(=O)CCN3C(=S)NC(C)(C)CC3C)CC2)cc1 (stereo not drawn)	0.9%	-11	0	0	-2.5	-0.8
CCCn1c(=O)c(C(=O)NCc2ccco2)c(O)c2ccccc21	2.9%	-20	-11	/	-4.9	0.6
O=C(CCS(=O)(=O)c1cc2c3c(c1)CCN3C(=O)CC2)Nc1cccc(Br)c1	0.8%	21	/	/	/	-0.8
CCCCNc1c(C(=O)OCC)c(=O)[nH]c2ccccc12	-2.4%	-8	8	0	3.9	1.1
CC(C)C(NC(=O)c1ccc(F)cc1)C(=O)Nc1cccnc1 (stereo not drawn)	0.9%	0	1	/	8.4	-0.7
COc1ccc(N2CCN(c3oc(Cc4cccc5ccccc45)nc3C#N)CC2)cc1	-1.6%[38.3 µM]	23	-8	-6	-2.0	0.3
CN(Cc1ccccc1)C(=O)CCC(=O)N(C)Cc1ccccc1	1.7%	19	8	10	-2.9	-0.8
O=C(CS(=O)(=O)c1ccccc1)N1CCCCC1	-0.5%	13	3	-22	-6.8	0.2
Cn1ccnc1COc1ccc(C=O)cc1	-1.0%	11	12	10	-0.5	-0.9
O=C(O)CSc1nc2sc3c(c2c(=O)n1Cc1ccccc1)CCCCC3	-0.6%	-15	-2	2	-2.4	-1.3
CCc1ccc(Nc2n[n+](-c3ccccc3)c(-c3cccc(Cl)c3Cl)s2)cc1	0.4%	30	-13	-6	-3.2	1.0
Cn1c(=O)n(C)c2cc(N3CCOCC3)c(NS(=O)(=O)c3ccc(F)cc3)cc21	-1.0%	-6	/	/	/	-0.2

Another view of two compounds above:
Second line of a record: PINK1 expr mod	TRPML1 inh	Six1-Eya2 inh	CtBP-E1A inh	D2 ag	TRPML1 ag
> COCc1ccc(CN2CCc3c([nH]c4ccccc34)C2C(C)(C)C)o1 (stereo not drawn)
 : 19%	-12	-14	-13	4.4	0.6
> COc1ccccc1CNC(=O)[C@H](C)NC(=O)[C@@H]1Cc2ccccc2CN1
 : 0.0%	-5	8	1	-6.5	1.6
